# Compound activity: PubChem BioAssay, several laboratories
# HNF4A DNA FP – change in binding of human HNF4A to DNA, primary screen, biochemical, fluorescence polarization, FITC-DNA; 1 h; activity change, % at 10 µM; 0.3% of 360,000 active; in the data active = activity change above about 30%, passing the limit was not always enough;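 note: controls were the assay level and a saturating level of protein; the project sought stronger binding though the title names inhibitors; some compounds called inactive have numbers as strong as hits; positive values seem to mean higher polarization but the record does not say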
# Target sequence (P41235 whole entry, looked up): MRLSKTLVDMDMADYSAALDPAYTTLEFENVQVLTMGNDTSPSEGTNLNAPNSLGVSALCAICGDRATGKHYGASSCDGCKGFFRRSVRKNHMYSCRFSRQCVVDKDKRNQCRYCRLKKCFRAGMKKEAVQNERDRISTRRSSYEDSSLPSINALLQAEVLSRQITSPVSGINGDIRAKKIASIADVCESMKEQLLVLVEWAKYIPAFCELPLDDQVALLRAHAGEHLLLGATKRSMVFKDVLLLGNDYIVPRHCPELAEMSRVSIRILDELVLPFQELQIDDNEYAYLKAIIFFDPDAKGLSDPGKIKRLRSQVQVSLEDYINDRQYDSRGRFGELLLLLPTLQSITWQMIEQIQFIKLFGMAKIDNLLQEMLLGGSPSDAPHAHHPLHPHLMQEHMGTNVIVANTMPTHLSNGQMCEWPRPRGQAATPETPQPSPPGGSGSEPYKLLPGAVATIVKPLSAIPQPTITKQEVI
# ALR inh – inhibitors of human ALR sulfhydryl oxidase, primary screen, biochemical, H2O2 detection, HRP-luminol luminescence, single point | purified ALR, DTT oxidation | inhibition, % (concentration not given with the values) | 3.8% of 290,000 active | AID 485317, 2010;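 active = mean and each replicate at 75% or more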;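 note: stock transfer was 7.5 nL into about 7.5 µL; 0% = neutral wells and 100% = wells with inactivated enzyme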
# FGF22 binding – binders of human FGF22 protein, primary screen, FGF22 synaptogenesis inhibitor project, biophysical, thermal shift, single point; calls only at 9.99 µM; Fibroblast growth factor 22 (Homo sapiens), Q9HCT0; AID 651658, 2012; recombinant FGF22 thermal shift, SYPRO orange fluorescence; percent of sucrose octasulfate shift, DMSO zero; 1.5% of 340,000 active;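 active = melting point raised past a set limit in the mean and every replicate; three in four hits are not shown here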
# Target sequence (Q9HCT0 whole entry, looked up): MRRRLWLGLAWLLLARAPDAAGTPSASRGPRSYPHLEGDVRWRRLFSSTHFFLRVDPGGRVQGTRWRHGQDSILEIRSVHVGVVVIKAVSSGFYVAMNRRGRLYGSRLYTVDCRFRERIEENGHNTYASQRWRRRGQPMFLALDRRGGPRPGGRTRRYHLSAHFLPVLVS
# LANA-H2B inh – blockers of LANA interaction with H2A/H2B – biochemical, FP readout, HTS, primary screen; Protein LANA1 (Human herpesvirus 8 type P (isolate GK18)), Q9QR71; cell-free LANA-H2A/H2B peptide, fluorescence polarization; inhibition, % (no concentration beside the values); 0.6% of 320,000 active; AID 2629, 2010; in the data active = inhibition mostly above about 10%, no sharp cut-off; inactive = mostly below about 6.7%;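 note: stock transfer was 7.5 nL into about 10 µL; 0% = median of vehicle wells and 100% = median of positive control wells; one replicate is shown; the record names a cut of 25% in any replicate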
# UCH37 DUB inh – inhibitors of human UCH37 deubiquitinase, primary screen, biochemical, Ub-AMC cleavage, fluorescence. 0.33% of 330,000 active. Ubiquitin carboxyl-terminal hydrolase isozyme L5 (Homo sapiens), Q9Y5K5. purified proteasome/UCH37. inhibition, % (no concentration beside the values);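 active = mean of two replicates above 20%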;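 note: 0% = compound-free wells with enzyme and 100% = wells lacking proteasome; stock transfer was 100 nL into about 20 µL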
# Target sequence (Q9Y5K5 whole entry, looked up): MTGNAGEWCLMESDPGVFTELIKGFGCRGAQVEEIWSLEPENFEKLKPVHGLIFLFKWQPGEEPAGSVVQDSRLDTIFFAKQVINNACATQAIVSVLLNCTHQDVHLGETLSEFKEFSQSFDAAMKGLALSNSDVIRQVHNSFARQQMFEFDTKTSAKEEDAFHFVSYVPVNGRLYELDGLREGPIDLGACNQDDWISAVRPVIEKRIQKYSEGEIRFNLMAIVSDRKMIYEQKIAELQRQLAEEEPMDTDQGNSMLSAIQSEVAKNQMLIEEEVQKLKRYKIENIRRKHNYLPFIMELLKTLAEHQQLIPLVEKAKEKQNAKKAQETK
#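 Assay system: Proteasome-bound UCH37. Buffer or medium: pH 7.4 Tris-HCl (50 mM) with ovalbumin, ATP-MgCl2, DTT. Incubation: 30 min preincubation with enzyme, 25 min cleavage at room temperature. Measured by: fluorescence, ex 355 nm, em 460 nm. Read-out basis: percent inhibition. Control set: wells without proteasome as full block, compound-free enzyme plus substrate as uninhibited.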
# E coli growth – E. coli growth inhibition, primary screen, OD600; Escherichia coli growth, 23 h; hits give low values; OD600 absorbance (concentration not given with the values); 0.21% of 330,000 active; AID 1053175, 2014;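 active = OD600 absorbance below the run mean of sample wells minus 3.6 SD, in any replicate, cut at about 0.56 in these data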;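 note: stock transfer was 300 nL into about 60 µL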
# B2AR ag – beta2AR agonists driving receptor internalization, primary screen, cell-based, FAP fluorogen, flow cytometry; Am2.2-beta2AR cells; reference of the scale not given here; 0.43% of 340,000 active; response, % (concentration not given with the values);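 active = response above a set limit, near 3 SD of response in nonfluorescent compounds, cut at about 42% in these data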;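 note: stock transfer was 100 nL into about 11 µL; a reference agonist was the positive control; negative values mostly stem from fluorescent compounds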
# The depositor's hits bear a star; i = inactive; / = not tested or not shown. Only part of the results is shown; count on the stated rates, not on these rows.
Compound	HNF4A DNA FP	ALR inh	FGF22 binding	LANA-H2B inh	UCH37 DUB inh	E coli growth	B2AR ag
COc1cc(NC(=O)c2cccc(NC3=NC4CS(=O)(=O)CC4S3)c2)cc(OC)c1OC (centres undefined)	9.2	-28	i	-1.0	0.8	0.79	-1
CCOC(=O)C1(Cc2ccc(OC)cc2)CCN(C(=O)Cn2cnnn2)CC1	3.2	-14	i	-1.8	2.6	0.7	14
O=C(CCN1C(=O)c2ccccc2C1=O)N1CCN(Cc2ccc(Cl)cc2Cl)CC1	0.5	-14	/	-0.7	2.2	0.67	11
Cc1cc(C)c2[nH]c(=S)cc(C)c2c1	2.9	4	/	1.8	3.7	0.66	1
CC1CCCN(C(=O)CN(C)S(=O)(=O)c2ccc3c(c2)c(=O)n(C)c(=O)n3C)C1 (centres undefined)	-2.1	-3	i	-3.0	-0.7	0.67	4
O=C(N/N=C/c1cc(Br)cs1)c1c[nH]c2ccccc12	3.8	24	i	-1.0	/	/	3
COc1ccc(C(=O)CSc2nnc(CN3CCCCC3)n2-c2ccc(F)cc2)cc1	3.5	/	i	-7.8	1.2	0.69	7
Cc1ccccc1OCC(=O)OCC(=O)c1ccc[nH]1	-4.7	/	i	-5.3	2.2	0.68	4
COc1ccc(NC(=O)Cn2nnc(-c3ccccc3NC(=O)c3ccco3)n2)cc1	-1.8	-13	/	6.6	2.3	0.68	-14
COc1ccc(-n2c(=O)n(Cc3ccccc3)c(=O)c3[nH]cnc32)cc1	6.3	1	i	-2.6	1.3	0.65	-5
O=C(NCC1CCCN(Cc2cccc(OCCO)c2)C1)c1ccc(F)cc1 (centres undefined)	-0.6	-1	i	1.5	0.1	0.7	-11
N#Cc1c(N)nc2c3c(sc(=N)c2c1N)NC(=O)CC3c1c(F)cccc1Cl (centres undefined)	10.0	/	/	-6.2	/	/	10
COc1ccc(C(=O)Nc2nnc(-c3cccs3)s2)cc1	0.3	2	/	5.2	-4.8	0.7	-15
CCCc1cc(C(=O)NCc2ccccc2)no1	0.5	-2	i	-1.9	2.3	0.73	9
CCn1c(SCC(=O)NC2CCCC2)nnc1-c1ccccn1	0.2	-2	i	1.3	-1.1	0.68	-8
Cc1ccc(-c2csc(=S)[nH]2)cc1	-1.2	64	i	-5.4	2.8	0.63	24
COc1cc2cnc(-c3ccsc3)cc2cc1OC	1.5	-1	i	3.3	1.2	0.66	-4
COc1ccc(S(=O)(=O)N(C)CC(=O)NCc2ccccc2)cc1OC	3.0	-3	i	-5.0	-0.1	0.62	-5
CCN1C(=O)C(CC(=O)Nc2c(C)cccc2C)SC1=Nc1ccc(S(N)(=O)=O)cc1 (centres undefined)	-3.3	-2	/	0.7	2.5	0.79	3
COc1ccc(NC(=O)c2ccc3c(c2)C(=O)N(CC2CCCO2)C3=O)c(OC)c1 (centres undefined)	4.2	/	i	-4.3	1.0	0.66	-1
CN1CCN(NC(=O)NC2CCCCC2)CC1	1.1	-1	i	3.6	4.5	0.71	2
Cc1cc(=O)[nH]c2ccccc12	-0.5	-3	/	-1.7	1.6	0.72	-13
COc1ccc(S(=O)(=O)Nc2cc3c4c(c2)CC(=O)N4CCC3)cc1	-1.8	-11	i	5.0	3.3	0.72	-8
O=c1c(F)cn(C2CCCO2)c(=O)n1Cc1ccc(Cl)cc1 (centres undefined)	2.2	3	i	4.5	1.4	0.74	-6
CCc1cc(C(=O)N2CCCC(C(=O)c3ccc(OC)c(F)c3)C2)n(C)n1 (centres undefined)	-0.3	-4	i	-0.2	-1.1	0.67	4
CC1CCCCC1NC(=O)COC(=O)/C=C/c1ccc2c(c1)OCO2 (centres undefined)	-0.6	-6	/	-2.1	-64	0.63	5
COc1ccc(NC(=S)NCCN2CCC(C)CC2)cc1Cl	2.8	-3	i	-1.6	-1.2	0.69	3
COC(=O)/C(=C\c1ccc([N+](=O)[O-])o1)NC(=O)c1ccccc1	1.0	-23	/	-1.6	12	0.71	56*
COc1ccc(CNc2cc(C)ccn2)cc1	1.4	/	i	-4.1	2.7	0.66	-7
CC(C)(C)c1ccc(C(=O)NCc2cccnc2)cc1	-4.8	21	/	2.8	0.2	0.65	-1

# Of the compounds above, these contain an aryl thioether with sulfur outside any ring.
Compound	HNF4A DNA FP	ALR inh	FGF22 binding	LANA-H2B inh	UCH37 DUB inh	E coli growth	B2AR ag
COc1ccc(C(=O)CSc2nnc(CN3CCCCC3)n2-c2ccc(F)cc2)cc1	3.5	/	i	-7.8	1.2	0.69	7
CCn1c(SCC(=O)NC2CCCC2)nnc1-c1ccccn1	0.2	-2	i	1.3	-1.1	0.68	-8

# Additional results follow.
Compound	HNF4A DNA FP	ALR inh	FGF22 binding	LANA-H2B inh	UCH37 DUB inh	E coli growth	B2AR ag
CC(=O)c1c(C)[nH]c(C(=O)COC(=O)c2ccc(Cl)nc2)c1C	-3.0	0	i	-10	3.0	0.72	-5
O=C(NCCc1ccccc1)c1ccc2nc(-c3ccco3)c(-c3ccco3)nc2c1	-27	-8	/	-2.2	-96	0.7	13
Cc1n[nH]c(=O)c2c1nnn2Cc1ccccc1Cl	-4.3	-4	i	-2.0	1.5	0.7	0
COc1ccc(CCNC(=O)Cn2cnc3sc(C)c(-c4ccc(F)cc4)c3c2=O)cc1OC	1.8	-4	i	-0.2	5.9	0.71	0
C/C(=N\NC(=O)c1c(Cl)c(C)nn1C)c1ccc(NC(=O)COc2ccc(Cl)cc2C)cc1	0.2	-33	/	1.9	/	/	5
CC(C)(C)c1nnc(N/N=C/c2ccc(Br)cc2)n(N)c1=O	-1.7	/	/	1.5	/	/	70*
Cn1c(SCC(=O)Nc2nc3c(s2)CCCC3)nnc1-c1ccccc1	-0.6	-3	/	-4.5	3.8	0.69	-11
COc1ccccc1N1CCN(/N=C/C=C/c2ccccc2[N+](=O)[O-])CC1	2.1	3	i	2.0	/	/	-8
COc1ccc(N2CCN(CC(O)COc3ccc(C)cc3C)CC2)cc1 (centres undefined)	3.3	79*	i	0.6	1.7	0.66	3
CC(C)N(CCC(=O)c1ccc2ccccc2c1)Cc1ccccc1	0.6	97*	i	0.3	-3.3	0.62	-3
COc1ccc(NC(=O)C2CCCN2S(=O)(=O)c2cccc3nsnc23)c(OC)c1 (centres undefined)	1.6	1	/	-2.5	4.7	0.71	1
COc1ccc(N2CCN(C(=O)c3ccc(-c4ccccc4)cc3)CC2)cc1	2.0	-3	i	-0.1	3.5	0.69	4
CC(C)N(C)Cc1nnnn1CC(=O)NCc1cc(F)cc(C(F)(F)F)c1	-2.7	0	i	6.3	6.1	0.68	-2
Cc1cc(C)c(NC(=O)CSc2ccc3nnc(CCNC(=O)c4ccccc4)n3n2)c(C)c1	-4.6	-3	/	1.1	0.7	0.69	-3
CCOc1ccc(NC(=O)C2CCCN(S(C)(=O)=O)C2)cc1 (centres undefined)	4.0	/	i	-3.6	1.4	0.67	12
CCCCn1c(N)c(N(CC(C)C)C(=O)C2CCN(S(=O)(=O)c3ccc(Cl)cc3)CC2)c(=O)[nH]c1=O	-0.3	-4	i	-2.8	1.1	0.64	2
COc1ccc(OC)c(-c2cc(C(=O)NCc3ccco3)no2)c1	-2.4	6	i	1.5	-22	0.67	19
CCCCn1c(N)c(N(CCOC)C(=O)C2CCN(C(=O)c3ccccc3C)CC2)c(=O)[nH]c1=O	-1.5	-2	i	2.2	-3.3	0.68	-2
COCCN(CCOC)C(=O)c1ccc(NS(=O)(=O)c2ccc3[nH]c(=O)[nH]c3c2)cc1	-0.9	-7	i	33*	3.6	0.71	3
O=C(C1CC(=O)N(c2ccc(F)cc2)C1)N1CCOCC1 (centres undefined)	0.9	2	i	-2.0	4.2	0.71	0
Cc1nc(NC(=O)COC(=O)c2ccc(CO)cc2)c(Cl)cc1Cl	-2.0	-8	i	1.7	2.7	0.69	-3
O=C(C1=C[C@H](c2ccc3c(c2)OCO3)C[C@H](OCCCCO)O1)N1CCOCC1	1.3	-9	i	-7.6	0.1	0.81	0
CC(C)OC(=O)c1ccc2nc3ccccc3nc2c1	1.4	28	i	2.8	5.3	0.67	11
Cc1[nH]c2ccccc2c1C(=O)COC(=O)c1nccnc1N	-0.2	-1	i	2.0	-39	0.69	2
COc1ccc(NC(=O)CNC(=O)N2CC(=O)Nc3ccccc32)cc1OC	-0.3	-93	i	5.4	2.0	0.69	-1
CCN(Cc1ccccc1)C(=S)NC(=O)c1ccccc1Br	-4.9	2	i	3.5	2.6	0.62	-5
CCOC(=O)CCCN1CC(O)=C(c2nc(-c3ccc(Cl)cc3)cs2)C1=N	1.1	/	i	1.3	1.8	0.72	10
CSc1nc(N2CCN(c3ccccc3Cl)CC2)c2ccccc2n1	-5.5	-19	i	-1.2	-17	0.7	-3
Cc1ccn2cc(-c3cccc(S(=O)(=O)N4CCCCC4)c3)nc2c1	-0.6	28	i	13	-10	0.69	6
CC(C)C(=O)N1CCN(c2ccc(NC(=O)c3cccs3)cc2Cl)CC1	-0.7	-8	i	-2.5	2.3	0.69	6
CC(=O)Nc1ccc(NC(=O)C(C)OC(=O)[C@@H]2CCCN2C(=O)c2cccs2)cc1 (some centres undefined)	1.9	0	i	-0.3	4.8	0.67	-7
Cc1ccc(NCCC(=O)c2cccs2)cc1Cl	1.5	14	/	2.0	3.4	0.74	-3
CCOC(=O)C1CCN(S(=O)(=O)c2cc(Br)cc3c2N(C(=O)C2CC2)CC3)CC1	0.5	-7	/	1.2	2.9	0.67	-2
CCOC(=O)c1sc(=NC(=O)c2cccs2)n(C)c1C	-3.5	/	i	-0.2	-38	0.74	3
Cc1ccc(O)c(NC(=O)c2cc([N+](=O)[O-])ccc2Cl)c1	0.7	48	i	1.4	3.0	0.68	17
CC1CCCCC1NC(=O)COC(=O)c1ccccc1NC(=O)c1ccco1 (centres undefined)	-2.3	0	/	3.3	-43	0.71	-14
COC(=O)c1ccc(N2C(=O)CC(SCC(=O)Nc3ccc(OC)cc3)C2=O)cc1 (centres undefined)	4.6	/	i	2.3	4.8	0.72	7
COc1ccc(S(=O)(=O)N2CCOCC2)cc1NC(=O)CSc1n[nH]c(C(C)C)n1	2.9	-4	i	-3.5	1.0	0.68	3
CC(=O)NC(=S)Nc1ccc(S(=O)(=O)N(C)Cc2ccccc2)cc1	2.7	-10	i	-0.1	4.4	0.67	2
O=C(O)CCn1ccnc1-c1ccccc1	-1.6	-20	/	-4.9	4.0	0.68	2
O=C(CSc1nc2[nH]ncc2c(=O)[nH]1)Nc1ccccc1C(F)(F)F	3.0	-1	i	1.4	-0.9	0.68	2
O=C(NCc1ccc2c(c1)OCO2)c1cccc(Cl)c1	4.4	-8	/	-3.0	1.8	0.69	-4
CC(=O)c1cccc(NC(=O)c2ccc(NS(C)(=O)=O)cc2)c1	2.6	19	/	-3.0	0.8	0.68	-2
CCCc1nnc(N2C(=O)c3cccc4cccc(c34)C2=O)s1	-1.4	-1	/	-2.7	-39	0.77	-9
CCCCS(=O)CC(COc1ccc(Cl)cc1)OC(=O)c1ccccc1 (centres undefined)	0.1	-7	/	-1.0	5.8	0.74	-3
Cc1onc(-c2c(F)cccc2Cl)c1C(=O)NCc1ccc(F)cc1	1.3	1	i	1.9	2.3	0.69	-1
